RE007 growth inh: less growth of the S. pombe RE007 Vpr strain. S. pombe RE007 Vpr strain, BacTiter-Glo ATP luminescence, 24 h; control for the full effect not named in the record. Potency, µM (top dose mostly 92.2 µM), for the others: at the highest dose activity change, negative = less growth. actives 0.21% (n = 360,000). AID 651644; active = well fitted falling curve with a large enough effect; inconclusive = small, poorly fitted or top-dose-only effect; inactive = no such curve, though single readings can be large or run the other way;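 also: % is scaled to controls: 0 for no effect and ±100 for the full control effect; nearly all actives have a fitted effect of over 50% in size; the assay follows cell death caused by Vpr and the record does not say whether a fall means rescue or toxicity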
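Fission yeast strain RE007, carrying one chromosomally integrated HIV-1 vpr copy, was seeded at OD 0.01 in PMG+AL medium with 23 nL pinned compound. After 24 h at 30 °C and 99% humidity, viability was read by BacTiter-Glo luminescence.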
NS1 inh: blocks influenza NS1 protein function. S. cerevisiae slowed by influenza A NS1, growth recovery by OD600. Potency, µM (doses to about 46.1 µM), without a hit: at the top dose activity, positive = more growth. actives 0.4% (n = 270,000). AID 2326; active means well fitted rising curve with a large enough effect; inconclusive means small, poorly fitted or top-dose-only effect; inactive means no such curve, though single readings can be large or run the other way; also: nearly all actives have a fitted effect of over 50% in size
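S. cerevisiae expressing influenza A NS1, grown in glucose, washed, then diluted 1:100 into pH 6.0 -URA galactose medium with 23 nl compound. Growth recovery read as OD600; NS1-free strain serves as control.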
Cruzain inh noDet: inhibitors of Trypanosoma cruzi cruzain without detergent; P25779; actives 2.3% (n = 200,000); purified cruzain, Z-FR-AMC fluorescence, no detergent; Potency, µM, inactives show max response, negative = inhibition, usual class: inhibitors;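 also: plate controls were enzyme without inhibitor for no effect and buffer without enzyme for full effect; nearly all actives have a fitted effect of over 40% in size; top concentration of the series not given in the record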
Target sequence (P25779 123-467 limits assumed): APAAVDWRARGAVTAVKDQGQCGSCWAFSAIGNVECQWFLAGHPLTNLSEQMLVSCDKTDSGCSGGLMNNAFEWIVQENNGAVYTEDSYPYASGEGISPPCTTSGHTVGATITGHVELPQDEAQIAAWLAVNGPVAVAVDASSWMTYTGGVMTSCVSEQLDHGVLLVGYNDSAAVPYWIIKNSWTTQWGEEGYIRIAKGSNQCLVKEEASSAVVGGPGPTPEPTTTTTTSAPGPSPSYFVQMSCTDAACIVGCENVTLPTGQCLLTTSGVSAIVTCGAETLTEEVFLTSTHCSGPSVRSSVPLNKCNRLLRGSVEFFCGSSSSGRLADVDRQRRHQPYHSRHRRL
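Purified cruzain at 1.5 nM, pre-incubated 15 min with compound at room temperature in 100 mM sodium acetate pH 5.5, 5 mM DTT, 0.00005% Triton X-100. Reaction started with 2 uM Z-FR-AMC; AMC fluorescence increase over 60 s gives rate.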
LASV entry inh: Lassa virus entry inhibition | actives 1.2% (n = 300,000) | Lassa virus pseudotype entry inhibition, cell reporter; control for the full effect not named in the record | Potency, µM (series often up to 37.9 µM), without a hit: top-dose activity change, negative = inhibition, usual class: inhibitors | AID 540256; active means well fitted inhibition curve with a large enough effect; inconclusive means small, poorly fitted or top-dose-only effect, or effect the other way; inactive means flat fitted curve, though single readings scatter; tested in HEK293 cells; also: % is scaled to controls: 0 for no effect and ±100 for the full control effect; nearly all actives have a fitted effect of over 50% in size; luciferase read-out
Marburg entry inh: inhibitors of Marburg virus binding or cell entry; Potency, µM (top dose mostly 37.8 µM), for the others: at the top dose activity change, negative = inhibition, hits mostly inhibitors; Marburg virus pseudotyped entry inhibition, cell reporter; control for the full effect not named in the record; about a third of the inactives were read at about 46 µM; AID 540276; actives 1.8% (n = 300,000); active = well fitted inhibition curve with a large enough effect; inconclusive = small, poorly fitted or top-dose-only effect, or effect the other way; inactive = flat fitted curve, though single readings scatter; tested in HEK293 cells; about a fifth of its hits are not listed in these tables; also: % is scaled to controls: 0 for no effect and ±100 for the full control effect; luciferase read-out
Cruzain Triton: inhibitors of Trypanosoma cruzi cruzain with detergent | P25779 | purified cruzain, Z-FR-AMC fluorescence, 0.01% Triton | Potency, µM, inactives show max response, negative = inhibition, actives largely listed as inhibitors | actives 0.43% (n = 200,000);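 also: plate controls were neutral wells for no effect and buffer without enzyme for full effect; nearly all actives have a fitted effect of over 40% in size; top concentration of the series not given in the record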
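15 min RT preincubation of 1.5 nM cruzain with compound, then 2 uM Z-FR-AMC added; kinetic AMC fluorescence, 60 s delta. Triton X-100 0.01%, pH 5.5.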
2A StopGo: FMDV 2A StopGo reporter, luciferase signal; human cells with a luciferase reporter of 2A StopGo recoding; control for the full effect not named in the record; Potency, µM (highest dose often 57.9 µM), for inactives: at the top dose signal change, negative = less light; actives 1.2% (n = 410,000); AID 1159524; active = well fitted falling curve with a large enough effect; inconclusive = small, poorly fitted or top-dose-only effect; inactive = no such curve, though single readings can be large or run the other way; tested in HEK293T cells; also: % is scaled to controls: 0 for no effect and ±100 for the full control effect; nearly all actives have a fitted effect of over 45% in size; luciferase light after 4 h
SARS PLP yeast: SARS-CoV PLP inhibition in yeast; Potency, µM (top dose mostly 32.9 µM), for the others: top-dose activity, positive = growth rescue; actives 0.19% (n = 330,000); S. cerevisiae expressing SARS-CoV PLpro, growth rescue; control for the full effect not named in the record; AID 485353; active means well fitted rising curve with a large enough effect; inconclusive means small, poorly fitted or top-dose-only effect; inactive means no such curve, though single readings can be large or run the other way; also: 0% is about no effect; nearly all actives have a fitted effect of over 55% in size; growth read by luminescence after 48 h
* = called active by the depositor; ? = inconclusive; . = no result given; & = joins results of further samples; [ ] = another dose, or the depositor's remark. Unless noted, calls follow the shape of the dose curve; as a rule, active = well fitted curve in the direction sought with a large enough effect; inconclusive = small, poorly fitted or top-dose-only effect, or another doubt; inactive = no such curve, though single readings can be large; an effect the other way counts as inactive or inconclusive. Potency is read from the fitted curve at half-maximal effect.

SMILES	RE007 growth inh	NS1 inh	Cruzain inh noDet	LASV entry inh	Marburg entry inh	Cruzain Triton	2A StopGo	SARS PLP yeast
CCC(CC)c1nn2c(=O)cc(COc3ccc(NC(=O)c4ccccc4C)cc3)nc2s1	.	.	5%	?	?	-0.1%	-2%	.
CC12C=CC(=O)CC1CCC1C2CCC2(C)C(O)C(O)CC12 (stereo unspecified)	4%	.	.	?	15%[46.1 µM]	.	?	.
Cc1ccc(N2C(=O)NC(=O)/C(=C\c3cccn3C(C)(C)C)C2=O)cc1	6%	2%	.	.	.	.	-8%	0%
CCOc1ccc(OCc2ccc(C(=O)Nc3cccc(C)n3)o2)cc1	-12%	-38%	?	-17%	0%	-7.4%	.	-16%
O=C(NCc1cccnc1)C(=O)NCC1OCCCN1S(=O)(=O)c1ccc(Cl)cc1 (stereo unspecified)	7%	.	.	-2%[46.1 µM]	-3%[46.1 µM]	.	-8%	1%
CC(C)Oc1c(Br)cc(Br)cc1/C=N/NC(N)=S	0%	-2%	0.16µM*	?	-5%	0.71µM*	?	5%
CC(=O)c1cccc(NC(=O)NC2CC3CCCC(C2)N3CC(C)C)c1 (stereo unspecified)	9%	-3%	-8%	22%	?	0.6%	17%	4%
Cc1nn(C)c(C)c1CS(=O)(=O)c1ccccc1	-19%	.	.	1%	?	.	-9%	7%
COc1ccc(C2CC(=O)c3cnc4c(-c5ccc(F)cc5)c(C)nn4c3C2)cc1OC (stereo unspecified)	.	.	-6%	7%[46.1 µM]	-22%[46.1 µM]	1.0%	0%	.
CC(=O)OCC(=O)C1(O)CCC2C3CC(C)C4=CC(=O)CCC4(C)C3C(O)CC21C (stereo unspecified)	-10%	.	.	-11%[46.1 µM]	-13%[46.1 µM]	.	-13%	.
CC(C)N(C(=S)Nc1cccnc1)c1ccccc1	-9%	-6%	.	.	.	.	-10%	-1%
Cc1cnc([N+](=O)[O-])n1CCOC(=O)c1cccc(F)c1	-20%	2%	.	2%[46.1 µM]	18%[46.1 µM]	.	35%[activator]	-2%
O=C(C1=C(O)C(=O)N(Cc2ccco2)C1c1cccc(Cl)c1)c1ccco1 (stereo unspecified)	8%	16%	.	19%[46.1 µM]	3%[46.1 µM]	.	43%[activator]	-5%
Cc1cc(NS(=O)(=O)c2ccc(NC(=S)NC(=O)c3cccnc3)cc2)no1	?	13%	.	9%	14%[46.1 µM]	.	10%	1%
Cc1cccc(OCc2nnc(SCC(=O)N3CCCC3)o2)c1	3%	-3%	.	-17%[46.1 µM]	-21%[46.1 µM]	.	37%[activator]	0%
Cc1csc(NC(=O)CCCC(=O)O)c1-c1nc2ccccc2s1	10%	0%	.	19%	4%[46.1 µM]	.	-3%	2%
Cc1ccc(S(=O)(=O)Nc2ccccc2C(=O)N2CCCCCC2)cc1	5%	-2%	.	?	11%	.	53%[activator]	0%
COc1ccc(NC(=O)COC(=O)c2ccccc2SCC(=O)N2CCCC2)cc1	-11%	.	.	2%	16%[46.1 µM]	.	-1%	-3%
CCc1c(O)nc(SCC(=O)Nc2nc3ccccc3s2)n(C2CCCCC2)c1=O	16%	14%	.	.	.	.	-5%	-9%
Cc1ccc(S(=O)(=O)Nc2c(O)c3ccccc3oc2=O)cc1C	6%	-4%	.	?	2%[46.1 µM]	.	-5%	-2%
CCOc1ccccc1C(=O)N[C@H](C(=O)Nc1cc(S(=O)(=O)N(C)C)ccc1OC)C(C)C	1%	.	.	-13%[46.1 µM]	?	.	9%	2%
COc1cccc(NC(=O)CN(C)C(=O)CCNC(=O)c2ccc(Br)cc2)c1	-13%	.	.	0%	1%	.	3%	-5%
CNC(=O)CSCc1c(F)cccc1Cl	10%	-3%	-9%	-18%	4%	-1.8%	16%	-1%
CCOC(=O)N1CCN(C(=O)Nc2ccc3nc(C)sc3c2)CC1	9%	-15%	5%	-14%	-1%[46.1 µM]	3.9%	-19%	-7%
C[C@@](N)(C(=O)O)c1ccc(C(=O)O)cc1	.	.	-6%&3%	.	-3%&-3%	2.6%&-0.9%	-4%&-16%&3%	.
O=C(CCCn1c(=O)[nH]c2cc(Cl)ccc2c1=O)N1CCC2(CC1)OCCO2	7%	-2%	0%	-18%	12%	-2.4%	-25%	?
Cc1ccc(NC(=O)COC(=O)CCCC2=NS(=O)(=O)c3ccccc3N2)cc1C	-1%	-7%	.	-8%[46.1 µM]	25%[46.1 µM]	.	-10%	-4%
CC(C)NC(=O)CCNS(=O)(=O)c1ccc(Br)cc1	3%	4%	3%	12%	-1%	2.3%	-20%	8%
CCOC(=O)CNC(=O)CSc1nc(-c2ccccc2)ns1	1%	.	.	-9%	2%[46.1 µM]	.	19%	2%
Cc1cc(/C=C2\C(=O)NC(=O)N(Cc3ccccc3)C2=O)c(C)n1-c1ccc(Cl)c(C(=O)O)c1	-7%	29%	?	5%	9%	-11%	-21%	14%
COCC(C)NC(=S)Nc1ccccc1[N+](=O)[O-] (stereo unspecified)	5%	.	.	1%	?	.	9%	0%
CCOC(=O)N1CCN(c2ccc(C(=O)CC)cc2F)CC1	-28%	-8%	-3%	-11%	29%	14%	-23%	-3%
CNC(=O)c1ccc2nc(CCc3ccccc3)oc2c1	.	.	9%	27%[46.1 µM]	.	-2.9%	35%[activator]	.
Cn1cc(/C=C2\SC(=O)NC2=S)c2ccccc21	5%	-1%	.	2%[46.1 µM]	?	.	?	0%
CCN(C(=O)CCc1nc(-c2ccccc2F)no1)c1cc(OC)ccc1OC	1%	-17%	20%	?	?	-2.9%	-29%	-8%
CCN1CCc2c(OCC(=O)Nc3ccccc3)cccc2C1=O	-9%	-2%	.	-14%	10%	.	2%	1%
COc1ccc(CCNC(=O)Cn2c(=O)nc(-c3ccccc3)c3ccccc32)cc1OC	.	.	0%	-15%[46.1 µM]	.	-1.8%	25%	.
COc1cc(C(=O)NC2CCN(Cc3ccccc3)CC2)cc(Cl)c1OC(C)C	-15%	-10%	.	?	?	.	0%	-1%
COc1cccc(C(=O)Nc2ccccc2OCc2cc(=O)n3ccccc3n2)c1	.	.	2%	-8%[46.1 µM]	.	2.8%	-3%	.
CCN(CC)CCNS(=O)(=O)c1ccc(C(=O)NN)cc1	-4%	.	.	-15%[46.1 µM]	-11%[46.1 µM]	.	-14%	0%
CCN(CC)CCCN1C(=O)C(=O)/C(=C(/O)c2ccc(OC)c(Cl)c2)C1c1ccco1 (stereo unspecified)	.	8%	-10%	.	1%	3.1%	.	2%
Cc1ccc(NC(=O)CC2SC(=Nc3ccc(O)cc3)NC2=O)cc1 (stereo unspecified)	-19%	.	.	?	?	.	-11%	0%
O=C(NCc1nnc2c(C(F)(F)F)cc(Cl)cn12)c1ccco1	3%	-3%	.	.	.	.	-18%	0%
COc1ccccc1NS(=O)(=O)c1cccc(C(=O)NCC(c2ccco2)N2CCCC2)c1 (stereo unspecified)	-5%	.	.	9%	-16%	.	-29%	14%
CCOc1ccc(NC(=O)C(C)N2C(=O)c3ccccc3C2=O)cc1 (stereo unspecified)	14%	-1%	.	?	4%	.	-21%	-1%
CCCc1nnc(NS(=O)(=O)c2ccc(C)cc2)o1	6%	.	.	12%	1%	.	0%	.
COc1ccc(OCC(=O)NC2CCCc3ccccc32)cc1 (stereo unspecified)	4%	-36%	.	?	3%[46.1 µM]	.	10%	2%
O=C(Cn1nnc(-c2ccccc2F)n1)Nc1ccc2c(c1)OCO2	10%	-2%	1%	9%	12%	-1.0%	.	?
Cc1nnc(SCC(=O)NCc2ccco2)[nH]c1=O	5%	4%	-9%	25%	21%	-3.1%	70%[activator]	3%
O=C(N/N=C/c1ccc(F)cc1)c1ccncc1	-11%	3%	.	8%	?	.	30%[activator]	-7%
CC1=CC(c2ccc(Cl)cc2)n2nc(NC(=O)c3ccccc3)nc2N1 (stereo unspecified)	33%	4%	-1%	?	-6%	0.0%	-11%	6%
CCOc1ccc(CNC(=O)Cn2nc(C)n3nc(-c4ccccc4)cc3c2=O)cc1	4%	4%	.	.	.	.	-8%	0%
CCC1=C([N+](=O)[O-])C(c2ccc3c(c2)OCO3)NC(=O)N1 (stereo unspecified)	2%	14%	.	13%	-19%	.	-14%	1%
COc1ccc(-n2nc(C(=O)Nc3cccc(C)n3)c3c4ccccc4n(C)c3c2=O)cc1	.	.	-9%	1%[46.1 µM]	-5%[46.1 µM]	-0.9%	-20%	.
CCCc1nn(C)c2c(=O)[nH]c(-c3cc(S(=O)(=O)N4CCN(C)CC4)ccc3OCC)nc12	-2%[18.4 µM]	3%	1%&6%	.	.	3.5%&-0.6%	-18%&-9%	-3%
c1ccc(COc2ccc(OCCn3cncn3)cc2)cc1	-10%	-2%	4%	2%	19%[46.1 µM]	-1.7%	19%	-6%
Cc1c(O)ccc(C(=O)CN2CCN(Cc3ccccc3)CC2)c1O	-6%	4%	.	.	.	.	-2%	4%
O=C1C2CCCN2C(=O)N1CCN1CCN(c2cccc(C(F)(F)F)c2)CC1 (stereo unspecified)	8%	.	.	-10%[46.1 µM]	12%[46.1 µM]	.	?	.
Cc1c(C(=O)N2CC(C(=O)N3CCCCC3)Oc3ccccc32)oc2ccccc12 (stereo unspecified)	-9%	.	.	-16%	-14%	.	-12%	-4%
Cc1cccc(/N=C/c2c(O)c3ccccc3oc2=O)n1	2%	-13%	-5%	-14%	?	-2.4%	-5%	-4%

Continuation:
SMILES	RE007 growth inh	NS1 inh	Cruzain inh noDet	LASV entry inh	Marburg entry inh	Cruzain Triton	2A StopGo	SARS PLP yeast
Cc1ccc(C(=O)N2N=C(CC(C)C)CC2(O)C(F)(F)F)o1 (stereo unspecified)	-8%	-1%	.	8%[46.1 µM]	8%[46.1 µM]	.	-4%	0%
O=C(NC(=O)c1ccccc1O)c1ccc2c(c1)CCO2	-19%	1%	.	11µM*	?	.	-13%	-5%
Cc1ccc(CCNC(=O)c2ccc3c(c2)N(Cc2cccc(Cl)c2)C(=O)c2ccccc2S3(=O)=O)cc1	.	.	?	-25%[46.1 µM]	.	-1.4%	-13%	.
CCN1CCN(Cc2nnc(-c3ccc(C)cc3)o2)CC1	-7%	5%	.	.	.	.	10%	1%
CC(C)CCN(Cc1ccco1)S(=O)(=O)c1ccc(-c2ccc(=O)[nH]n2)s1	3%	-3%	.	-6%[46.1 µM]	?	.	-2%	-7%

Screening data: PubChem BioAssay, National Center for Advancing Translational Sciences (NCATS)
